Source: PubChem BioAssay
Menin MLL FP FL: qHTS Assay for Inhibitors Targeting the Menin-MLL Interaction in MLL Related Leukemias: Competition With Fluorescein Labeled MLL-derived Peptide. Fluorescence polarization, fluorescein-MLL peptide displacement from menin. 290,000 tested, under 10 active. FP activity change, % at 61.4 µM. AID 1766, 2009; inconclusive = falling polarisation curve, or a change in total fluorescence; inactive = total fluorescence flat and polarisation flat or rising; no compound was filed as active; the % refers to the polarisation; negative = inhibition;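 also: % of control where 0% means no effect; inhibitors lower the polarisation; unlabelled MLL peptide was the positive control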
gsp agonist: qHTS for Agonist of gsp, the Etiologic Mutation Responsible for Fibrous Dysplasia/McCune-Albright Syndrome: qHTS. Potency, µM (highest dose often 76.9 µM), without a hit: top-dose activation (cAMP increase), actives largely listed as activators. gsp mutant cells, cAMP HTRF, 30 min; control for the full effect not named in the record. 340,000 compounds, 0.13% hits. AID 624287, 2012; active = well fitted activation curve with a large enough effect; inconclusive = small, poorly fitted or top-dose-only effect, or another doubt; inactive = no such curve, though single readings can be large or run the other way; cell line not stated here;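 also: phosphodiesterase inhibitor Ro 20-1724 added with compounds to block cAMP breakdown; potency is read from the fitted curve at half-maximal effect; nearly all actives have a fitted effect of over 60% in size; about a fifth of the inactives were tested at one dose only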
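Cells stably selected in G418 were plated at 2000/well, grown 16-24 hr, then given compounds in DMSO with the PDE inhibitor […] (300 uM solution added) for 30 min at 37C; cAMP was read by HTRF.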
TRPML1 inh: qHTS for Inhibitors of the Human Mucolipin Transient Receptor Potential 1 (TRPML1); 390,000 compounds, 0.02% hits; AID 624415, 2012; activity change, negative = inhibition, % (no concentration beside the values); TRPML1-inducible cells, Ca2+ dye fluorescence, FDSS; stronger effect = lower value; inhibition of EC80 agonist-evoked calcium signal; Mucolipin-1 (Homo sapiens), Q9GZU1; in the data active means activity change below about -50%; inconclusive means about -30% to -50%; inactive means above about -30%;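 also: stimulus is agonist 54-4 at its EC80 concentration; % is scaled to controls: 0 for no effect and ±100 for the full control effect; compound concentration not given in the record; the text of the record puts the active cut at -80%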
Target sequence (Q9GZU1 whole entry, looked up): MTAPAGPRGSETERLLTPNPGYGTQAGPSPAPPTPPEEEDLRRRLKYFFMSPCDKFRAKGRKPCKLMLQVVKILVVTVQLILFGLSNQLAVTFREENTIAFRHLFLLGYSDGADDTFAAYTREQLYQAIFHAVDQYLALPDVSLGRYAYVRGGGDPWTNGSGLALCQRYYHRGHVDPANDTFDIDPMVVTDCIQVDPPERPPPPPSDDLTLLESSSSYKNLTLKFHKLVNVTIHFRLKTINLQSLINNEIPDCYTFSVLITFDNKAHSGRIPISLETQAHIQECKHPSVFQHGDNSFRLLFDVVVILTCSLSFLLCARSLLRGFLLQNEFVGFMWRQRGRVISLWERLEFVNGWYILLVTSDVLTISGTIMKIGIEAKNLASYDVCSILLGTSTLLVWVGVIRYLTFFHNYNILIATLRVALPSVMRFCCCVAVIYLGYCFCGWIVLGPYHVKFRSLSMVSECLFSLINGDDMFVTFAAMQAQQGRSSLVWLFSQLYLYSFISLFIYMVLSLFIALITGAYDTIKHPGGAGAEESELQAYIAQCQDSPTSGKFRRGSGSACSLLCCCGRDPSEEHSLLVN
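Calcium fluorescence in TRPML1-DL cells induced overnight with Tet: a 110 s read after compound pin addition, then a 110 s antagonist read after challenge with 54-4 at 4 uM final (EC80).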
gsp antag: qHTS for Antagonists of gsp, the Etiologic Mutation Responsible for Fibrous Dysplasia/McCune-Albright Syndrome: qHTS; gsp-mutant cells, cAMP HTRF, 30 min; control for the full effect not named in the record; Potency, µM (doses to about 76.9 µM), without a hit: top-dose activity change, negative = inhibition, most hits filed as inhibitors; 340,000 compounds, 0.4% hits; AID 624288, 2012; active = falling curve of any shape with a large fitted effect; inconclusive = falling curve, mostly with a smaller effect; inactive = flat or rising curve; cell line not stated here;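 also: intracellular cAMP measured with PDE inhibitor Ro 20-1724 present during compound exposure; potency is read from the fitted curve at half-maximal effect; % is scaled to controls: 0 for no effect and ±100 for the full control effect; nearly all actives have a fitted effect of over 65% in size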
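Cells, 2000/well, grown 16–24 h in DMEM 10% FBS with 0.5 mg/ml G418, then compounds plus […] (300 uM addition stock), 30 min at 37C. cAMP read by HTRF (cAMP-d2 and anti-cAMP antibody-K in lysis buffer) after 30 min RT.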
TRPML1 ag: qHTS for Agonists of the Human Mucolipin Transient Receptor Potential 1 (TRPML1). Mucolipin-1 (Homo sapiens), Q9GZU1. TRPML1-expressing cells, Ca2+ dye fluorescence, FDSS; host cell line not named in the record; reference of the full effect not given here. activation, % (concentration not given with the values). 410,000 compounds, 0.12% hits. AID 624414, 2012; in the data active = activation above about 50%; inconclusive = about 30% to 50%; inactive = below about 30%; also: 0% is about no effect; the text of the record puts the active cut at 80%
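Kinetic FDSS Ca2+ read in Tet-induced TRPML1-DL cells (ABD Ca8 dye plus quencher, 45-90 min RT loading): baseline, then compound, then 110 s agonist window; EC80 agonist 54-4 at 4uM final added afterwards for a 110 s antagonist window.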
ClpP mod: qHTS Assay for Activators of ClpP. 340,000 compounds, 1.9% hits. purified B. subtilis ClpP, FRET peptide cleavage, 20 min. Potency, µM (doses to about 57.5 µM), without a hit: at the highest dose activity change, negative = active. ATP-dependent Clp protease proteolytic subunit (Bacillus subtilis (strain 168)), P80244; active = well fitted falling curve with a large enough effect; inconclusive = small, poorly fitted or top-dose-only effect; inactive = no such curve, though single readings can be large or run the other way; also: potency is read from the fitted curve at half-maximal effect; the source files actives as falling curves though it sought activators and does not explain the sign; nearly all actives have a fitted effect of over 65% in size; many hits overshoot -100%
Target sequence (P80244 whole entry, looked up): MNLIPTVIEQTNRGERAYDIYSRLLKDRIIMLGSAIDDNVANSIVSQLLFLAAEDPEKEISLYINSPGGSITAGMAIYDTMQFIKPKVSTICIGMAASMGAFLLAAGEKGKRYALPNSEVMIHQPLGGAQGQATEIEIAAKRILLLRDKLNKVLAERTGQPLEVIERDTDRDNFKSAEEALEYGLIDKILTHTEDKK
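FRET quenching reversal measured ClpP activation: 10 microg/mL B. subtilis ClpP at pH 8 with the FRET-FV decapeptide, read at 430 nm after 320 nm excitation. The 20-min minus 0-min signal was scaled between DMSO/no-enzyme wells and ADEP (5.8 microM final).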
Starred values were filed as active, the others as inactive; ? = inconclusive; nt = no result given; [ ] = another dose, or the depositor's remark.

SMILES	Menin MLL FP FL	gsp agonist	TRPML1 inh	gsp antag	TRPML1 ag	ClpP mod
CCOc1cc(C2C3=C(CCCC3=O)Nc3nc(C(=O)OC)nn32)ccc1OC (stereo not drawn)	0.3	11%	4	5%	0.8	-1.3%
CC1Cc2cc(-c3csc(NC(=O)Cc4ccccc4)n3)ccc2N1S(C)(=O)=O (stereo not drawn)	1.6	-9%	4	-6%	0.9	-4.7%
CC(=O)N1CCOc2ccc(S(=O)(=O)N3CCC(C(=O)Nc4ccc(C)cc4)CC3)cc21	nt	20%	0	-12%	-0.7	1.0%
CCCCOc1ccc(CSCCN=C(N)N)cc1	-0.6	-10%[15.4 µM]	-13	12%	-0.7	nt
C#CCn1c(C)cc(C)c(S(=O)(=O)c2ccccc2)c1=O	0.9	17%[15.4 µM]	21	nt	0.2	nt
CCN(CC)S(=O)(=O)c1ccc2c(c1)N(CC(=O)Nc1c(C)cc(C)cc1C)C(=O)CS2	nt	nt	3	nt	1.5	1.8%
Nc1nc(Cl)c2ncn(C3OC(CO)C(O)C3O)c2n1 (stereo not drawn)	-7.8	2%	35	10%	0.0	1.4%
O=C(CCSCc1ccccc1F)NCc1cccs1	0.5	6%[15.4 µM]	1	14%	-0.1	nt
Cc1ccc2nc(SC(C)C(=O)N3CC(C)OC(C)C3)[nH]c2c1 (stereo not drawn)	5.2	-3%	1	5%	0.0	nt
Cc1ccc(Nc2nc(C(=O)NCCCN3CCOCC3)cs2)cc1	1.6	?	-2	-3%	0.6	-0.8%

Sorted by the number under gsp antag (low to high): some entries from above.
| Structure | gsp antag |
| --- | --- |
| Cc1ccc(Nc2nc(C(=O)NCCCN3CCOCC3)cs2)cc1 | -3% |
| CCOc1cc(C2C3=C(CCCC3=O)Nc3nc(C(=O)OC)nn32)ccc1OC (stereo not drawn) | 5% |
| Nc1nc(Cl)c2ncn(C3OC(CO)C(O)C3O)c2n1 (stereo not drawn) | 10% |

(list continues)
SMILES	Menin MLL FP FL	gsp agonist	TRPML1 inh	gsp antag	TRPML1 ag	ClpP mod
[N-]=[N+]=NC1c2ccccc2C(=O)N1Cc1ccccc1 (stereo not drawn)	-4.9	-6%	13	-5%	2.7	-2.1%
CCc1ccc(NC(=O)c2cnc3sc(N4CCCC4)nn3c2=O)cc1	nt	nt	7	nt	0.7	-6.3%
CC(/C=C/C=C/c1ccccc1)=N\NC(=O)c1cccnc1	6.5	-1%[15.4 µM]	12	nt	0.3	nt
CCOc1ccccc1N1CCN(CC(=O)c2c(N)n(C)c(=O)n(C)c2=O)CC1	-1.2	-3%[15.4 µM]	16	2%	0.3	nt
CCCCN(CCCC)c1nc(-c2ccncc2)nc2ccccc12	1.1	-7%	-4	9%	-1.1	4.5%
CC(=O)Oc1ccccc1C(=O)Oc1ccc(/C=N/n2cnnc2)cc1	3.8	-2%	1	7%	2.7	2.3%
Cc1cccnc1NC(=O)c1cccc(S(=O)(=O)N2CCN(c3ccc(F)cc3)CC2)c1	nt	22%[15.4 µM]	14	-24%	-0.6	-3.3%
O=[N+]([O-])c1ccc(F)c(N=Cc2ccc(Br)s2)c1	3.7	-58%[inhibitor]	-29	6%	0.1	-2.1%
CNC(=S)N(CCc1c(C)[nH]c2ccc(C)cc12)Cc1cccs1	-0.2	-4%	5	-11%	-0.1	0.6%
CC(Oc1ccccc1)C(=O)Nc1oc(-c2ccco2)c(-c2ccco2)c1C#N (stereo not drawn)	15	5%[15.4 µM]	2	?	4.2	nt
Cc1ccc(NC(=O)COC(=O)CN2CCCCCC2=O)c(C)c1	nt	22%	-9	5%	-0.9	-0.3%
N#Cc1ccc(S(=O)(=O)NC2CCN(Cc3ccccc3)CC2)cc1	1.5	8%	22	10%	0.9	nt
CC(C)c1ccc(NC(=O)C2CCCCC2C(=O)O)cc1 (stereo not drawn)	3.4	-90%[inhibitor]	-7	9%	-0.3	?
Cc1ccccc1C(=O)N=c1sccn1C	0.6	-31%	-12	-4%	-0.4	-5.7%
COc1ccccc1CNC(=O)c1cc(-c2ccccc2)nn1CC1CC(c2cccnc2)=NO1 (stereo not drawn)	nt	21%	-9	?	0.5	-0.4%
C/C=C/C(=O)OCC(=O)Nc1ccc(SC(F)F)cc1	-2.1	-9%[15.4 µM]	15	18%	2.3	1.4%
CCCCC(=O)NCCc1ccc(S(N)(=O)=O)cc1	0.6	33%	4	2%	-0.4	-0.9%
COc1ccc(NC(=O)CN2C(=O)NC(CC(C)C)C2=O)cc1S(=O)(=O)N1CCOCC1 (stereo not drawn)	nt	-22%	-15	-13%	-0.2	1.6%
COc1ccc(CNC(=O)Cc2cccs2)cc1	-0.2	-36%[inhibitor]	nt	7%	nt	1.0%
O=C(Nc1ccc(CN2CCS(=O)(=O)CC2)cc1)c1ccc(Cl)cc1	0.3	24%[15.4 µM]	6	-2%	0.0	nt
O=C(NC(NNc1ccc([N+](=O)[O-])cc1)(C(F)(F)F)C(F)(F)F)c1ccc(F)cc1	7.2	1%	2	-28%	0.3	0.8%
CCOC(=O)CN/C=C(\C#N)c1ccc(F)cc1	-0.3	-22%	16	-11%	1.0	1.1%
Cc1ccc(NC(=O)C2CC(=O)n3c(nc4ccccc43)N2)cc1C (stereo not drawn)	4.7	5%[15.4 µM]	-8	5%	-0.4	nt
CCN1CCN(c2ncc(C(=O)N3CCN(c4ccccc4OC)CC3)c3ccccc23)CC1	nt	-11%[15.4 µM]	2	23%	0.6	1.5%
CCOC(=O)c1c(C)oc2nc(C)nc(N3CCN(c4ccccc4F)CC3)c12	nt	nt	-12	nt	1.8	1.9%
Cc1cc(C)n(C(=O)CCC(=O)Nc2ccc(C)c(C)c2)n1	0.8	-17%	0	5%	-0.3	0.6%
CCOC(=O)c1cnc(SCC(=O)Nc2cc(OC)ccc2OC)nc1N	2.0	?	-6	-3%	0.3	-0.8%
COCCNC(=O)C1CCCN(C(=O)C2(c3ccc(Cl)cc3)CCCC2)CC1 (stereo not drawn)	nt	nt	0	nt	-0.2	-0.3%
CC1=C(C(N)=O)C(c2cccc(O)c2)n2nc(CCCO)nc2N1 (stereo not drawn)	2.8	-42%[inhibitor]	4	10%	0.7	0.7%
CC1CCCN(C(=O)COC(=O)c2cc(Br)ccc2O)C1 (stereo not drawn)	nt	5%	-13	-16%	-0.2	1.9%
CCNC(=O)Nc1cc(S(=O)(=O)N2CCOCC2)ccc1N1CCCCC1	nt	6%	3	nt	-0.5	0.2%
CCCCCN(C(=O)CCC(=O)OCc1ccc(Cl)cc1Cl)c1c(N)n(CCCC)c(=O)[nH]c1=O	nt	-4%[15.4 µM]	-7	-1%	-0.1	nt
COc1ccc(Nc2cc(C(=O)NCCCOC(C)C)c3ccccc3n2)c(OC)c1	-2.1	0%	-1	-15%	-0.3	2.4%
O=C(CC12CC3CC(CC(Br)(C3)C1)C2)NCc1ccccc1	-1.5	-15%[15.4 µM]	12	4%	-0.6	nt
CC(C)(C)N(NS(=O)(=O)c1ccc(F)cc1)c1ccccc1	-9.9	-25%[15.4 µM]	13	10%	-0.9	2.1%
COC(=O)c1sc(NC(=O)c2csc3c2CCCC3)nc1C	3.4	-5%	-13	-20%	0.5	-17%
O=C(O)CSC(=S)N1CCCC1	-0.1	?	nt	7%	nt	-1.9%
CCc1c(C)nc2[nH]nc(NC(=O)C(F)(F)F)n2c1=O	-1.7	-29%	5	6%	1.2	13%
CC(OC(=O)c1oc2ccccc2c1COc1ccccc1)C(N)=O (stereo not drawn)	-2.4	-26%	5	-5%	1.7	nt
COCCSc1nnc(NC(=O)C2CC(=O)N(C3CCCC3)C2)s1 (stereo not drawn)	0.7	4%[15.4 µM]	10	0%	-0.1	nt
Cc1onc(COc2ccccc2O)c1Br	-0.8	0%	-9	4%	0.2	1.2%
O=c1[nH]c(-c2ccccc2)ncc1Oc1ccccc1	nt	-11%	30	-4%	2.0	0.8%
CCOc1ccc(NC(=O)Cc2c(C(=O)O)n(C)c3ccccc23)cc1	9.5	-8%[15.4 µM]	-5	3%	-0.8	-0.8%
CCN(C(=O)C1CCCN(c2nc(-c3ccc(OC)cc3)no2)C1)c1ccccc1F (stereo not drawn)	-0.4	-3%	36	-24%	0.2	0.2%
CCc1ccc(N2CC34C=CC(O3)C(C(=O)OC(C)C)C4C2=O)cc1 (stereo not drawn)	-0.4	13%	2	5%	-0.1	1.4%
CC(=O)c1ccc(NC(=O)CC(NCCC2=CCCCC2)C(=O)O)cc1 (stereo not drawn)	5.4	-18%	0	8%	-0.1	-3.0%
Cc1ccc(/C=C/C(=O)Nn2cnnc2)cc1	-0.6	-1%	-9	9%	-1.2	-2.7%
Cc1ccc(NC(=O)CSc2nc3nccnc3c(=O)n2CCc2c[nH]c3ccccc23)cc1C	nt	nt	0	nt	1.3	0.3%
Cc1cc(C)c2[nH]c(=O)c(CN(CC3CCCO3)C(=S)NCc3ccco3)cc2c1 (stereo not drawn)	4.9	3%[15.4 µM]	-5	-11%	-0.2	0.1%
CCCOc1ccc(/C(O)=C2/C(=O)C(=O)N(CCCn3ccnc3)C2c2cccs2)cc1 (stereo not drawn)	2.6	-2%	-2	25%	-0.5	0.8%
Further compounds.
SMILES	Menin MLL FP FL	gsp agonist	TRPML1 inh	gsp antag	TRPML1 ag	ClpP mod
Nc1cc(N)nc(SCc2ccccc2)n1	8.8	-65%[inhibitor]	-1	9%	-0.5	-0.3%
Nc1nnc(SCC(=O)Nc2cccc(S(=O)(=O)N3CCCCC3)c2)s1	nt	17%	-10	-11%	0.3	-3.7%
Cc1ccc(CNCC(=O)Nc2cccc(S(=O)(=O)NC3=NCCCCC3)c2)cc1	1.0	-70%[inhibitor]	-4	-6%	3.3	-2.4%
CN(CC1CCCN(CCc2ccc(Cl)cc2)C1)C(=O)CC(F)(F)F (stereo not drawn)	2.4	11%[15.4 µM]	5	-8%	-0.1	0.7%
COC(=O)CSc1nnc(C)n1-c1ccc(C)cc1	2.9	-75%[inhibitor]	5	-10%	0.6	0.7%
O=C(Cc1ccccc1)N1CCN(S(=O)(=O)c2ccc([N+](=O)[O-])cc2)CC1	-5.7	?	16	0%	0.4	nt
CC(=O)Nc1ccc(NC(=O)CCn2cnnn2)cc1	2.1	2%[15.4 µM]	10	16%	1.1	nt
CCn1ncc([N+](=O)[O-])c1C(=O)Nc1ccc(C(=O)N2CCCCC2)cc1	-6.8	-27%	8	4%	0.5	0.9%
C[C@H]([C@H](O)c1ccccc1)N(C)C(=O)CN	-1.8	-25%	-2	6%	-0.4	3.2%
